GIV Gai3 FP: inhibitors of GIV GBA-motif binding to rat Galpha-i3; Galpha-i3/FITC-GIV peptide fluorescence polarization, 90 min; active compounds read low; scaled: aluminum fluoride 0%, vehicle 100%; percent of control (FP), % (concentration not given with the values); AID 1224905; 0.42% of 210,000 active;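 active = replicate mean at 85% of control or lower, very high polarization wells dropped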;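 note: wells of about 15 µL received 100 nL stock; the first replicate is given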
Target sequence (P08753 whole entry, looked up): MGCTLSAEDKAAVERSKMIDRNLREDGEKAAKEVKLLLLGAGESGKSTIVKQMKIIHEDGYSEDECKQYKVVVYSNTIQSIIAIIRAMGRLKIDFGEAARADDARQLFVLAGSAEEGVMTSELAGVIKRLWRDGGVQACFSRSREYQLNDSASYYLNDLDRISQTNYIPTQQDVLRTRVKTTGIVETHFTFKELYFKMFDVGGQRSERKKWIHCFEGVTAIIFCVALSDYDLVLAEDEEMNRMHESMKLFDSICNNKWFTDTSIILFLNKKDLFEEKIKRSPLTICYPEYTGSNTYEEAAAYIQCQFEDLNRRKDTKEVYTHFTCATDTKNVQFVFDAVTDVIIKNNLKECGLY
Numbers without * were called inactive. Some of the compounds tested. The share of hits here may be higher or lower than overall.

SMILES	GIV Gai3 FP
COc1ccc(S(=O)(=O)N(CC(=O)Nc2cccc(C(F)(F)F)c2)c2ccc(Cl)cc2)cc1	113
Cc1cccc(N2CCN(c3ccc4nnc(CCc5nc(-c6ccccc6C)no5)n4n3)CC2)c1	108
Cn1nc(C(=O)N2CCCC2)c2c1CCN(C(=O)CCC(=O)N1CCN(c3ccccn3)CC1)C2	102
CC(C)NC(=O)Cn1cnc2nc(N3CCCC(C(=O)NC4CC4)C3)sc2c1=O (configuration not stated)	102
O=C(Nc1nnc(SCC(=O)N2CCN(c3ccccc3)CC2)s1)NC1CCCCC1	101
Cc1nnc(SCC(=O)Nc2ccc(Cl)cc2F)s1	110
CC(C)(C)C1=CC2(C=C(C(C)(C)C)C1=O)Nc1cc(Br)ccc1OC2c1ccccc1 (configuration not stated)	101
O=C(Nc1ccccc1Br)c1cc(S(=O)(=O)N2CCN(c3cccc(Cl)c3)CC2)ccc1F	109
CCCCn1c(=O)nc2n(-c3ccc(OCC)cc3)c3ccccc3cc-2c1=O	105
CCn1c(=O)c(=O)n(CC(=O)NCCC2=CCCCC2)c2cccnc21	101
CCOc1ccc(C2=NN3C(C2)c2cc(Cl)ccc2OC3c2ccc(N(C)C)cc2)cc1 (configuration not stated)	120
CCCS(=O)(=O)c1c(S(=O)(=O)CCC)c2cc(-c3ccncc3)ccn2c1C(=O)c1ccc([N+](=O)[O-])cc1	101
COc1ccc(C(=O)N2CCCC(c3nc(-c4ccc(NC(C)=O)cc4)no3)C2)cc1 (configuration not stated)	101
Nc1nc(CN2c3cccc4cccc(c34)S2(=O)=O)nc(N2CCCCC2)n1	106
COCCc1nc(C2CCN(C3CCCCCC3)CC2)n[nH]1	107
CCOC(=O)c1c(C)[nH]c(CCC(=O)N2CCCC2)c1C	107
COc1ccc(N2CCN(c3ncc(S(=O)(=O)c4ccccc4)c(N)n3)CC2)cc1	110
CC(C(=O)c1ccc(Cl)cc1)C1(O)C(=O)Nc2ccccc21 (configuration not stated)	102
CCc1ccc(-n2c(=S)sc3c(=O)n(-c4ccccc4)c(=S)[nH]c32)cc1	105
Cc1nc2ccccc2c(=O)n1-c1ccc(NC(=O)c2cc(F)cc(F)c2)cc1	104
O=C(NC1CC1)C1(c2ccc(F)cc2)CC1	100
O=C(COc1ccccc1)Nc1ccccc1-c1ccc2ccccc2n1	102
CC1(C)CC(=O)C2=C(C1)Nc1ccc3ccccc3c1C2c1ccccc1Cl (configuration not stated)	102
Cc1cc(C)c2c(n1)sc1c(=O)n(CC(=O)Nc3ccc(Cl)cc3)cnc12	98
Cc1cc(Cl)ccc1OCC(=O)Nc1sc2c(c1C#N)CCCCC2	117
CC12c3ccccc3C(C=O)(c3ccccc31)C1C(=O)N(c3cccc(Br)c3)C(=O)C12 (configuration not stated)	101
CCCCn1c(=O)nc2n(-c3ccc(OC)cc3)c3ccccc3cc-2c1=O	110
CC(C)c1cc(C2CCCN2Cc2cccnc2)on1 (configuration not stated)	114
COC(=O)c1ccc(/C=C2\C(=O)N(c3ccc([N+](=O)[O-])cc3)N=C2c2ccccc2)cc1	108
Cc1ccc(N2C(=O)/C(=C/c3ccc(-c4ccc([N+](=O)[O-])cc4)o3)C=C2c2ccccc2)cc1[N+](=O)[O-]	116
CN(C)S(=O)(=O)c1ccc2c(c1)cc(C(=O)NCc1cccnc1)n2Cc1ccncc1	108
O=C(NCc1ccco1)c1cc2nc(-c3ccc(Br)cc3)cc(C(F)(F)F)n2n1	106
O=C(NC1(C(=O)Nc2cccc(Cl)c2)CCCCC1)c1ccccc1	106
CC(C)NC(=O)CN(C)S(=O)(=O)c1cc2c(cc1Cl)NC(=O)CO2	108
O=C1CC(c2cc(Br)ccc2F)c2scc(-c3ccc(F)cc3)c2N1 (configuration not stated)	105
Cc1ccc(S(=O)(=O)N2CCCN(c3nc4cccnc4s3)CC2)c(C)c1	105
Clc1ccc(-c2nc(NCc3ccco3)c3ccccc3n2)cc1	126
CCOC(=O)C1=C(C)NC2=C(C(=O)c3ccccc32)C1c1ccc(OC)cc1 (configuration not stated)	105
Cc1ccc(N=c2oc3ccccc3cc2-c2nc3ccccc3s2)cc1	105
CC(C)c1cc(C2CCCN2C(=O)Nc2ccc(Br)cc2F)no1 (configuration not stated)	107
CC(C)NC(=O)C1CCN(c2cnc(N3CCOCC3)nc2)CC1	104
O=C1c2ccc([N+](=O)[O-])c3c([N+](=O)[O-])ccc(c23)C(=O)N1c1ccccc1Br	109
CCOc1ccc(S(=O)(=O)Nc2cccc(-c3nnc(-c4ccccc4)o3)c2)cc1	104
Cc1cn2c(S(=O)(=O)N3CCC4(CC3)OCCO4)c(C(C)C)nc2s1	100
CC1(C)CC(=O)CC2=C1OC1=C(CC(=O)CC1(C)C)C21C(=O)Nc2ccccc21	98
Cc1ccc(N2CC(C(=O)Nc3ccc4c(c3)N(C(C)C)C(=O)c3ccccc3O4)CC2=O)cc1 (configuration not stated)	100
Cc1c(-c2ccc(O)cc2)nc2nc(-c3ccccc3)c(-c3ccccc3)nn12	232
Cc1ccc(-n2nc3c(c2NC(=O)c2c(-c4ccccc4Cl)noc2C)CS(=O)(=O)C3)c(C)c1	112
O=c1/c(=C\c2cc3c(cc2[N+](=O)[O-])OCO3)sc2nc3cc(Br)cnc3n12	106
O=C(NCc1ccc(Br)cc1)c1sc2ncccc2c1-n1cccc1	107
The listing continues:
SMILES	GIV Gai3 FP
CCC(=O)Nc1cccnc1-c1ccc(C(=O)Nc2ccc(OC)cc2)cc1	105
Cc1cc(F)ccc1NS(=O)(=O)c1cc(-c2cc(C(F)(F)F)on2)sc1C	109
COc1ccc(-c2ccc(C3Nc4ccc5ccccc5c4C4=C3C(=O)CC(C)(C)C4)o2)c([N+](=O)[O-])c1 (configuration not stated)	107
Cc1cccc(C)c1NC1=NC(=S)N(c2ccccc2Cl)C12CCC(C(C)(C)C)CC2 (configuration not stated)	101
O=C1c2cc(S(=O)(=O)N3CCN(C(=O)c4ccco4)CC3)ccc2-c2ccc(S(=O)(=O)N3CCN(C(=O)c4ccco4)CC3)cc21	107
CC12CC(c3ccccc3O1)C(c1nnc(-c3cccc(Br)c3)o1)C(=O)N2 (configuration not stated)	106
CCc1onc(C)c1C1CCCN1Cc1cn(CC(=O)OC)c2ccc(OC)cc12 (configuration not stated)	123
O=C(CNCc1ccccc1)N1c2ccccc2Sc2ccc(Cl)cc21	105
O=S(=O)(c1ccc(-c2cnc(C3CCC3)o2)s1)N1CCN(c2ccccc2)CC1	107
CCOC(=O)C1=C2c3cc(OC)c(OC)cc3CC(C)(C)N2C(=O)C1=O	107
CCCCC(=O)Nc1ccc(C2(C(=O)NCC3CCCO3)CC2)cc1 (configuration not stated)	103
CCC(C)NC(=O)N1CCCN(c2nc3cc(Br)ccc3n3cccc23)CC1 (configuration not stated)	106
CCOC(=O)N1CCN(C(=O)c2ccc3c(=O)n(C4CCCCC4)c(SCc4ccncc4)nc3c2)CC1	111
CCCCCCC1(O)C(C)C(c2ccc(N(C)C)cc2)NC(c2ccc(N(C)C)cc2)C1C (configuration not stated)	116
Cc1nn(-c2ccc3nnc(C)n3n2)c2c1C(c1ccc(OCc3cccc(F)c3)cc1)CC(=O)N2 (configuration not stated)	105
Cc1ccccc1-n1c(=S)sc2c1nc(SCc1cccc(F)c1)n1c3ccccc3nc21	113
O=C(CCCn1c(SCC(=O)Nc2ccccc2C(F)(F)F)nc2ccccc2c1=O)NCC1CCCO1 (configuration not stated)	95
Cc1ccc(N2C(=O)C(N3C(=O)c4c(Cl)c(Cl)c(Cl)c(Cl)c4C3=O)C2c2cccs2)cc1F (configuration not stated)	108
CCN(Cc1ccccc1)S(=O)(=O)c1c(C)nn(-c2ccc(-c3ccccc3)nn2)c1C	97
CCOC(=O)C1=C(C(=O)OCC)SC(=C2C(=S)C(C)(C)N(C(=O)C(C)C)c3ccc(OC)cc32)S1	103
CCNC(=O)C1CCN(Cc2c[nH]c3ccc(OC)cc23)CC1	102
CCn1nc(C)c2ccnc(N3CCC(C(=O)NCCN4CCOCC4)CC3)c21	101
Cc1ccc(NC(=O)c2sc3ncn(CC(=O)N4CCN(c5ccccn5)CC4)c(=O)c3c2C)c(Br)c1	99
Cc1csc(-c2cc(S(=O)(=O)N3CCCN(C)CC3)cn2CC(=O)N2CCCCC2)n1	104
COc1ccc(C2/C(=C(\O)c3ccccc3)C(=O)C(=O)N2c2ccc(C)c(Cl)c2)cc1OC (configuration not stated)	107
Cc1c(C(=O)N2CCN(C)CC2)sc2ncnc(N3CCc4ccccc4C3)c12	106
CCN(CC)c1nc(C)nc2sc(C(=O)Nc3ccc4c(c3)OCO4)c(C)c12	113
CCOC(=O)C1CCCN(Cc2cc(=O)[nH]c(C(C)C)n2)C1 (configuration not stated)	103
COc1ccccc1-n1c(N)c(C(=O)NCc2ccccc2)sc1=S	109
O=C(CSc1nc(N2CCc3ccccc3C2)nc2ccccc12)NCc1ccccc1	107
CN(C(=O)CSc1nnc2c3ccccc3nc(-c3ccccc3)n12)c1ccccc1	101
Cc1ncc2c(n1)CCN(S(=O)(=O)c1cc(F)ccc1F)C2	99
CCOC(=O)c1c(C)[nH]c(CCC(=O)Nc2cc(C)on2)c1C	112
O=C(c1cccc(F)c1)N1CCCN(Cc2noc(-c3ccccc3)n2)CC1	98
COc1ccc(-c2c[n+](CC(=O)c3cccc([N+](=O)[O-])c3)c3n2CCCC3)cc1	108
O=C(CCc1nc(CSc2nc3ccccc3[nH]2)no1)Nc1cccc(Br)c1	102
COCc1cc(C)nc2sc(C(=O)Nc3ccc(Br)c(Cl)c3)c(N)c12	108
Cc1cc(N2CCOCC2)nc(N2CCN(C(=O)c3ccc(C(C)(C)C)cc3)CC2)n1	104
O=C1CC(n2nnn(-c3cccc4ccccc34)c2=S)C2COC1O2 (configuration not stated)	108
O=C(Nc1cccc(C(=O)O)c1)/C(=C\c1ccc2c(c1)OCO2)NC(=O)c1ccccc1	107
Cc1cc(C2CCCN2C(=O)NCC(C)C)no1 (configuration not stated)	100
CCOC(=O)C1CCN(C(=O)c2sc3nc(C)nc(N4CCC(C)CC4)c3c2C)CC1	101
O=C(NC1CCCC1)c1cccc(Oc2cc(-c3ccccc3)ncn2)c1	102
CC(C)(C)NC(=O)N1CC=C(C(=O)N2CCCC2)CC1	99
Cc1c(C(=O)Nc2c(F)cc(F)cc2Br)sc2ncn(CC(=O)N3CCOCC3)c(=O)c12	106
Cc1cc(NC2CCCCC2)n2c(nc3ccccc32)c1C#N	112
Cc1cccc(NC(=O)CSc2nc(C)cc(C(F)(F)F)c2C#N)n1	103
Cc1cc(F)c(F)cc1C(=O)N1CCN(c2cc(N3CCCCC3)c(F)cc2[N+](=O)[O-])CC1	116
CC(C)(C)c1ccc(-c2nc(NCCN3CCOCC3)c3ccccc3n2)cc1	115
CC(NC(=O)c1sc2ncccc2c1-n1cccc1)c1ccc(F)cc1 (configuration not stated)	106

The final two compounds of the section before come first, to join the parts.
SMILES	GIV Gai3 FP
CC(C)(C)c1ccc(-c2nc(NCCN3CCOCC3)c3ccccc3n2)cc1	115
CC(NC(=O)c1sc2ncccc2c1-n1cccc1)c1ccc(F)cc1 (configuration not stated)	106
O=C(Cn1c(=O)ccc2cc(S(=O)(=O)N3CCCC3)ccc21)N1CCN(c2ccccc2)CC1	103
Clc1ccc(-c2nc(Cn3ccnc3)no2)cc1	93
CCc1cc(C2CCCN2C(=O)Cn2nc(C(F)(F)F)cc2C)on1 (configuration not stated)	99
COc1ccc(NS(=O)(=O)c2c(C)sc(C)c2-c2cc(C(F)(F)F)on2)cc1Cl	106
COc1ccc(-c2cnn3c(C)cc(C)nc23)cc1S(=O)(=O)NCC(C)C	103
CCOC(=O)c1cc2c(c(CSc3nc4ccccc4c(=O)n3NC(=O)c3ccc(OC)cc3)c1)OCOC2	108
CCOc1ccc(C(=O)NCCc2sc3nc(-c4ccc(Cl)cc4)nn3c2C)cc1	100
CN(C(=O)C1CCCN(c2ncc(-c3ccccc3)cn2)C1)C1CCCCC1 (configuration not stated)	103
O=C(Cn1cc(/C=C2\C(=O)NC(=O)N(c3cccc(F)c3)C2=O)c2ccccc21)Nc1ccccc1	93
O=C(C1CCN(c2cncnc2N2CCCCC2)CC1)N1CCCCC1	105
Cc1cc(-c2ccc(C3Nc4ccc5ccccc5c4C4=C3C(=O)CC(C)(C)C4)o2)cc([N+](=O)[O-])c1C (configuration not stated)	111
N#CC1=C(NC(=O)c2ccccc2)c2ccccc2CC12CCCCC2	106
Cc1ccsc1C1N(Cc2ccc(Cl)cc2)CCN1Cc1ccc(Cl)cc1	107
Cc1cc(N2CCN(C)CC2)n2c(nc3ccccc32)c1C#N	108
CCOC(CCn1c(SCC(=O)N2CCN(c3ccccc3OC)CC2)nc2ccccc2c1=O)OCC	111
Cc1noc2nc(CCC(=O)NC3CCCCC3)nc(N3CCOCC3)c12	98
Cc1nc(-c2cc(NC(=O)c3ccc(Br)cc3)c(C)s2)no1	98

14 entries already listed, ordered by number of heavy atoms, descending.
SMILES	GIV Gai3 FP
CCOC(=O)c1cc2c(c(CSc3nc4ccccc4c(=O)n3NC(=O)c3ccc(OC)cc3)c1)OCOC2	108
CCOC(CCn1c(SCC(=O)N2CCN(c3ccccc3OC)CC2)nc2ccccc2c1=O)OCC	111
Cc1cc(-c2ccc(C3Nc4ccc5ccccc5c4C4=C3C(=O)CC(C)(C)C4)o2)cc([N+](=O)[O-])c1C (configuration not stated)	111
O=C(Cn1cc(/C=C2\C(=O)NC(=O)N(c3cccc(F)c3)C2=O)c2ccccc21)Nc1ccccc1	93
O=C(Cn1c(=O)ccc2cc(S(=O)(=O)N3CCCC3)ccc21)N1CCN(c2ccccc2)CC1	103
CCOc1ccc(C(=O)NCCc2sc3nc(-c4ccc(Cl)cc4)nn3c2C)cc1	100
COc1ccc(NS(=O)(=O)c2c(C)sc(C)c2-c2cc(C(F)(F)F)on2)cc1Cl	106
CN(C(=O)C1CCCN(c2ncc(-c3ccccc3)cn2)C1)C1CCCCC1 (configuration not stated)	103
Cc1ccsc1C1N(Cc2ccc(Cl)cc2)CCN1Cc1ccc(Cl)cc1	107
CC(NC(=O)c1sc2ncccc2c1-n1cccc1)c1ccc(F)cc1 (configuration not stated)	106
CCc1cc(C2CCCN2C(=O)Cn2nc(C(F)(F)F)cc2C)on1 (configuration not stated)	99
Cc1cc(N2CCN(C)CC2)n2c(nc3ccccc32)c1C#N	108
Cc1nc(-c2cc(NC(=O)c3ccc(Br)cc3)c(C)s2)no1	98
Clc1ccc(-c2nc(Cn3ccnc3)no2)cc1	93

High-throughput results from PubChem BioAssay.
